Assay outcomes deposited in PubChem BioAssay by Southern Research Specialized Biocontainment Screening Center.
Mtb betalactam: beta-lactam sensitization of Mtb H37Rv, H37Rv; M. tuberculosis H37Rv growth with meropenem, percent inhibition; hits of this screen are not shown here; inhibition, % at 25 µM; 330,000 compounds, 0.27% hits;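 active = about 74% or more and at least 40 points above the plate without the antibiotic, then above 30% in a dose series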;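 note: growth measured after seven days incubation then overnight dye step; 0% = bacteria only wells and 100% = bacteria with antibiotic; twin plates without the antibiotic show which effects depend on it; some results filed as inactive read as strong as hits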
* = called active by the depositor. Only part of the results is shown, so the mix of outcomes need not match the whole.

Start of the data: the first 4 compounds (preview)
SMILES | Mtb betalactam
O=C(CSc1nnc(C2CC2)n1-c1ccccc1)N1CCCC1 | -3
CC(C)NC(=O)N(C)C[C@H]1Oc2c(NS(=O)(=O)c3ccc(F)cc3)cccc2C(=O)N([C@H](C)CO)C[C@@H]1C | -4
CCSc1nnc(NC(=O)c2ccc3nc[nH]c3c2)s1 | -2
Cc1ccc(C(=O)OCC(=O)N(CC(C)C)c2c(N)n(Cc3ccccc3)c(=O)[nH]c2=O)cc1[N+](=O)[O-] | 50

This part in full, from the first entry:
SMILES | Mtb betalactam
O=C(CSc1nnc(C2CC2)n1-c1ccccc1)N1CCCC1 | -3
CC(C)NC(=O)N(C)C[C@H]1Oc2c(NS(=O)(=O)c3ccc(F)cc3)cccc2C(=O)N([C@H](C)CO)C[C@@H]1C | -4
CCSc1nnc(NC(=O)c2ccc3nc[nH]c3c2)s1 | -2
Cc1ccc(C(=O)OCC(=O)N(CC(C)C)c2c(N)n(Cc3ccccc3)c(=O)[nH]c2=O)cc1[N+](=O)[O-] | 50
COCCN(C(=O)c1ccc(NC2CC2)c([N+](=O)[O-])c1)c1c(N)n(CC(C)C)c(=O)[nH]c1=O | 3
O=C(OCCCc1cc2ccccc2c(=O)o1)N1CCOCC1 | -5
Cc1ccc(Cl)cc1NC(=O)CN1C(=O)NC(C)(C2CC2)C1=O (stereo not given) | -5
CN(C)C(CNC(=O)C1CCCN1C(=O)c1cccs1)c1ccccc1 (stereo not given) | 4
COc1ccc(S(=O)(=O)N(C)C[C@H]2Oc3ccc(NS(=O)(=O)c4ccc(F)cc4)cc3C(=O)N([C@H](C)CO)C[C@@H]2C)cc1 | 3
N#Cc1cc(S(=O)(=O)N2CCOCC2)ccc1N1CCOCC1 | 1
Cc1ccccc1OCCC(=O)OCC(=O)NNC(=O)c1cccs1 | -6
O=C(O)c1cc(Cl)ccc1OS(=O)(=O)c1ccc(Cl)s1 | -3
Cc1nc2nc(C)c(NS(=O)(=O)c3ccc(Cl)cc3)c(=O)n2[nH]1 | -2
Cc1ccc(NC(=O)Cc2nc(COC(=O)c3c(F)cccc3Cl)cs2)cc1 | 88
C[C@H](CO)N1C[C@H](C)[C@H](CN(C)Cc2ccc(Oc3ccccc3)cc2)Oc2ccc(NC(=O)Nc3cccc4ccccc34)cc2CC1=O | 6
NS(=O)(=O)c1ccc(CCNC(=O)CSCC(=O)Nc2ccc(Cl)cc2)cc1 | -9

Looked up above:
In Mtb betalactam, COCCN(C(=O)c1ccc(NC2CC2)c([N+](=O)[O-])c1)c1c(N)n(CC(C)C)c(=O)[nH]c1=O shows 3
In Mtb betalactam, CC(C)NC(=O)N(C)C[C@H]1Oc2c(NS(=O)(=O)c3ccc(F)cc3)cccc2C(=O)N([C@H](C)CO)C[C@@H]1C shows -4
In Mtb betalactam, Cc1ccc(NC(=O)Cc2nc(COC(=O)c3c(F)cccc3Cl)cs2)cc1 shows 88
In Mtb betalactam, N#Cc1cc(S(=O)(=O)N2CCOCC2)ccc1N1CCOCC1 shows 1

Sorted by molar mass (lowest first): three of the compounds above.
SMILES | Mtb betalactam
O=C(O)c1cc(Cl)ccc1OS(=O)(=O)c1ccc(Cl)s1 | -3
CN(C)C(CNC(=O)C1CCCN1C(=O)c1cccs1)c1ccccc1 (stereo not given) | 4
CC(C)NC(=O)N(C)C[C@H]1Oc2c(NS(=O)(=O)c3ccc(F)cc3)cccc2C(=O)N([C@H](C)CO)C[C@@H]1C | -4
